# MLL AF4-AF9 inh – MLL-AF4/AF9 protein interaction inhibition. P42568. AlphaScreen, biotin-AF4 peptide binding to FLAG-AF9. inhibition, % at 10 µM. 350,000 compounds, 0.47% hits;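 active = every replicate reaching a set inhibition limit, whatever the replicate mean, cut at about 25% in these data; inconclusive = mean inhibition reaches that limit but some replicates miss it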;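 note: 0% = plate neutral control median and 100% = total signal loss; the record names both 10 and 1 µM as test concentration; the first replicate is given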
# Target sequence (P42568 whole entry, looked up): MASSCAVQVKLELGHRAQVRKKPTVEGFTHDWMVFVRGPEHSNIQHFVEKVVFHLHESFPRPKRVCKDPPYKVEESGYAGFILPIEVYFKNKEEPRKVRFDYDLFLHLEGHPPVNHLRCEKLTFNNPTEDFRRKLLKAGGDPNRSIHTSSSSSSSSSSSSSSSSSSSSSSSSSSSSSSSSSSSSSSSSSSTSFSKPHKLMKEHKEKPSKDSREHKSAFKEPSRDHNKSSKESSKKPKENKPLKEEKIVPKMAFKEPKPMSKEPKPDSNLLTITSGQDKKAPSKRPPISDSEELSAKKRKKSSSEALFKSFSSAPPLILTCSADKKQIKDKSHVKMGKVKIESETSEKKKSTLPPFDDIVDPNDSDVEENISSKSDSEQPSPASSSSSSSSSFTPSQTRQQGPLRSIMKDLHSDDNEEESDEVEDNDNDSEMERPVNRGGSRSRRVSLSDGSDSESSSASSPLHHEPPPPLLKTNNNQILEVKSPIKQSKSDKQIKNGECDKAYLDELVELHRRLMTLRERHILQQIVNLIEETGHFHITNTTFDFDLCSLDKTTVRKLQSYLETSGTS
# Ecoli growth – inhibitors of Escherichia coli growth | OD600, 23 h; stronger effect = lower value | OD600 absorbance (no concentration beside the values) | 330,000 compounds, 0.21% hits | AID 1053175;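 active = OD600 absorbance below the run mean of sample wells minus 3.6 SD, in any replicate, cut at about 0.56 in these data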;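 note: stock transfer was 300 nL into about 60 µL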
# FGF22 binding – binders of recombinant human FGF22 by thermal shift. SYPRO orange fluorescence; percent of sucrose octasulfate shift, DMSO zero. calls only at 9.99 µM. Q9HCT0. 340,000 compounds, 1.5% hits;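 active = melting point raised past a set limit in the mean and every replicate; inconclusive = no clear call; three in four hits are not shown here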
# RanGTP-Impb inh – disruptors of Ran-importin-beta complex formation – biochemical, FRET, CFP-Ran, YFP-importin-beta, homogeneous, primary screen; inhibition, % (concentration not given with the values); 300,000 compounds, 1.1% hits; AID 2216; cell-free CFP-Ran/YFP-importin-beta FRET ratio;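 active = most replicates above 15%; inconclusive = exactly half above 15%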;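 note: 0% = DMSO wells and 100% = Ran loaded with GDP instead of GTP; wells of about 40 µL received 100 nL stock; the first replicate is given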
# Vif TR-FRET – inhibitors of Vif binding to APOBEC3G peptide, primary screen, biochemical, TR-FRET, GST-Vif 1-94, biotin-A3G peptide, dose response retest (AID 1117319); one-dose inhibition, %; IC50 in µM for titrated hits; TR-FRET GST-Vif / biotin-A3G peptide binding; higher % means a stronger effect; test concentration not given here; strong numbers were not always called active; 260,000 compounds, 0.57% hits;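 active = above the screen mean plus three standard deviations and confirmed in dose response; inconclusive = results disagree or hit not tested in dose response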;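 note: Vif residues 1-94 fused to GST binding biotinylated APOBEC3G peptide 110-148; 0% = full assay without inhibitor and 100% = GST in place of GST-Vif; retest series ran down from 100 µM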
# UCH37 DUB inh – inhibitors of human deubiquitinating enzyme UCH37; Q9Y5K5; purified proteasome/UCH37, Ub-AMC cleavage fluorescence; inhibition, % (no concentration beside the values); 330,000 compounds, 0.33% hits;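 active = mean of two replicates above 20%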;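 note: 0% = compound-free wells with enzyme and 100% = wells lacking proteasome; stock transfer was 100 nL into about 20 µL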
#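 System: Proteasome-associated human UCH37 deubiquitinase; Input: 0.15 nM proteasome in added enzyme buffer; Also added: Ub-AMC substrate from 1 µM stock; Incubation: 30 min compound-proteasome preincubation then 25 min substrate reaction, room temperature; Detection: fluorescence, ex 355 nm, em 460 nm; Read-out: % inhibition of Ub-AMC cleavage fluorescence; Benchmarks: no-proteasome and no-compound wells.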
# HNF4A DNA FP – change in binding of human HNF4 alpha to DNA | P41235 | HNF4a-FITC DNA binding, fluorescence polarization, 1 h | activity change, % at 10 µM | 360,000 compounds, 0.3% hits | AID 1224865; in the data active = activity change above about 30%, passing the limit was not always enough;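 note: controls were the assay level and a saturating level of protein; the project sought stronger binding though the title names inhibitors; some compounds called inactive have numbers as strong as hits; positive values seem to mean higher polarization but the record does not say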
# Target sequence (P41235 whole entry, looked up): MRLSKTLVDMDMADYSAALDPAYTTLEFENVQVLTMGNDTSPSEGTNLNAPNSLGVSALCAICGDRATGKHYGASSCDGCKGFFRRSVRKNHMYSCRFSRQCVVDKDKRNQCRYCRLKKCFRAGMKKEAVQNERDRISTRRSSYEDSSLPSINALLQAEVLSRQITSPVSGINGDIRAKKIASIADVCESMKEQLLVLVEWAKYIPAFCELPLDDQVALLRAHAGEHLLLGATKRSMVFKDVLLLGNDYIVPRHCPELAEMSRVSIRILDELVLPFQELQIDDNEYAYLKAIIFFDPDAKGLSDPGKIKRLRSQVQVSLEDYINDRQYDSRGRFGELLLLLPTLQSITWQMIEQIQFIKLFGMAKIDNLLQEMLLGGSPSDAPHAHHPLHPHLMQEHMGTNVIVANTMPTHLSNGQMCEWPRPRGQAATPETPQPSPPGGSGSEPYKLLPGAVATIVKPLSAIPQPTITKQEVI
# The depositor's hits bear a star; i = inactive; ? = inconclusive; . = no result given; & = joins results of further samples. A portion of the library. The share of hits here may be higher or lower than overall.
no.	Molecule	MLL AF4-AF9 inh	FGF22 binding	UCH37 DUB inh	HNF4A DNA FP	Vif TR-FRET	RanGTP-Impb inh	Ecoli growth
1	O=[N+]([O-])c1cccc(CNC2CCCCCC2)c1	-7.4	i	-1.2	-2.8	8%	-1.0	0.69
2	COc1ccc(NC(=O)CC2C(=O)Nc3ccccc3N2CC(=O)N2CCCC2)cc1 (stereo not given)	3.1	i	-12	1.4	.	.	0.69
3	COC(=O)c1sccc1NC(=S)N1C(C)CCCC1C (stereo not given)	8.8	i	3.3	0.1	14%	1.3	0.68
4	CC1CCN(C(C)C(=O)Nc2ccc(S(=O)(=O)N3CCCC3)cc2)CC1 (stereo not given)	-16	i	0.5	-0.6	17%	.	0.65
5	Cc1ccc(CCNC(=O)c2cccc(NC3=NC4CS(=O)(=O)CC4S3)c2)cc1 (stereo not given)	3.3	i	1.7	1.0	.	-3.7	0.76
6	Cc1cccc2sc(NC(=O)c3ccc(NS(=O)(=O)c4cccs4)cc3)nc12	.	.	-37	3.8	2%	4.6	0.68
7	CC(C)CC(NC(=O)C1CCCCC1)C(=O)NC(C)c1ccccc1 (stereo not given)	-1.6	i	0.2	3.0	-9%	-1.9	0.68
8	COc1cccc(-n2cnnc2SC(C)C(=O)NC2CCCC2)c1 (stereo not given)	0.2	i	3.5	3.1	0%	.	0.73
9	Cc1cc2n(n1)C(c1ccc3c(c1)OCO3)Nc1ccccc1-2 (stereo not given)	.	.	-15	1.6	8%	-0.1	0.7
10	Cc1cccc(NC(=O)c2cc(Cl)nc3ccccc23)c1	.	.	4.2	-2.6	11%	4.2	0.69
11	COc1cc(/C=N/NC(=O)COc2ccccc2C)ccc1OC(=O)c1cccs1	.	.	.	-2.8	-2%	?	.
12	COc1ccc(NC(=O)CN2C(=O)NC(C)(c3ccccc3)C2=O)cn1 (stereo not given)	-0.3	i	.	4.0	-1%	.	.
13	O=C(CSc1nnc(CN2CCCC2)n1-c1ccc(F)cc1)c1ccc2c(c1)OCO2	-0.2	i	-0.2	2.2	-4%	.	0.63
14	CC(=O)C1=C(C)NC(=O)CC1c1ccc(Br)cc1 (stereo not given)	-0.9	i	1.8	-0.5	-6%	1.5	0.67
15	CC1CCN(S(=O)(=O)CCNC(=O)c2ccc(F)cc2)CC1	-0.7	i	2.3	0.4	0%	-0.5	0.72
16	O=C(NCc1cccnc1)c1noc2c1CCCC2	13	i	1.4	-4.0	1%	-1.9	0.66
17	O=C(N/N=C1\CCS(=O)(=O)c2ccc(F)cc21)c1ccc([N+](=O)[O-])cc1	-17	i	.	0.1	.	3.0	.
18	CC(C)CNC(=O)C1(C)CCCN1C(=O)c1cccnc1Oc1ccccc1 (stereo not given)	-2.5	i	.	2.0	.	.	.
19	CCn1cc(C(=O)N[C@@H](CCSC)C(=O)NCCN2CCOCC2)c(=O)c2cc3c(cc21)OCO3	-3.0	i	-9.7	0.2	6%	3.5	0.64
20	CN(c1ccc(Cl)cc1)c1cc(=O)n(C)c2ccccc12	.	.	-2.9	0.8	9%	-2.2	0.7
21	S=c1nc2[nH]c3ccccc3c2n[nH]1	-7.8	i	6.1	-0.7	-6%	.	0.67
22	COc1ccc(NC(=O)CN(C)C(=O)Cn2c(=O)oc3ccccc32)cc1	0.2	i	0.0	-5.8	3%	2.5	0.64
23	CCCc1cc(=O)oc2cc(OCC(=O)NC(Cc3c[nH]c4ccc(O)cc34)C(=O)O)c(Cl)cc12 (stereo not given)	-2.6	i	-1.6	1.3	.	-0.6	0.74
24	CCc1nc(Nc2ccc(OC)cc2OC)c2oc3ccccc3c2n1	0.4	i	-465	1.4	.	-2.3	0.7
25	O=[N+]([O-])c1ccc(N2CCC(O)CC2)nc1	1.5	i	1.0	0.2	.	0.3	0.68
26	COCCCNC(=O)c1ccc2nc([C@@H]3O[C@H](CO)[C@H](O)[C@H](O)[C@H]3O)[nH]c2c1	0.2	i	.	1.2	.	.	.
27	CC1(C)Oc2cc3oc(=O)ccc3c3c2C2C1CCC(C)(O3)C2O (stereo not given)	4.2	i	.	-2.5	.	.	.
28	Cc1nc2cc(S(=O)(=O)C(F)(F)F)ccc2s1	.	.	-2.5	-0.8	4%	?	0.69
29	O=C(Nc1ccnn1C1CCN(Cc2ccccc2)CC1)C1CCOC1 (stereo not given)	1.5	i	1.4	3.5	.	-2.1	0.73
30	CON(c1nc(N(C)C)nc(N(C)C)n1)S(=O)(=O)c1ccccc1Cl	.	.	3.2	-3.0	79%	-2.1	0.69
31	CCO[C@@H]1OC(C(=O)NC2CC2)=C[C@H](c2c[nH]c3ccccc23)[C@H]1CCCO	.	.	2.0	2.1	.	-1.2	.
32	CCS(=O)(=O)N1CCN(C(=O)c2cc(OC)cc(OC)c2)CC1	-4.1	i	0.3	2.4	2%	0.8	0.66
33	COc1cc(CNc2ncc(-c3ccc(Br)cc3)n2C)cc(OC)c1O	25*	i	2.2	-0.3	-2%	0.0	0.69
34	CC1(C2CC2)NC(=O)N(CC(=O)Nc2ccccc2C#N)C1=O (stereo not given)	-34	i	1.2	-2.3	3%	.	0.69
35	COc1cc(/C=C2\SC(=S)N(N3CCOCC3)C2=O)ccc1O	-4.4	i	.	-9.5	11%	2.0	.
36	Nc1cccc(-c2ccc(CO)o2)c1	4.3	i	-15	1.4	-3%	1.3	0.68
37	COc1ccc(C(=O)NNC(=O)CSc2nnc(C)n2C)cc1	-1.0	i	2.3	-1.7	6%	-6.5	0.68
38	CCN(CC)C(=O)C1=C(C)Nc2nc3ccccc3n2C1c1cccc(OC)c1 (stereo not given)	.	.	2.7	0.7	-7%	5.3	0.68
39	O=c1cc(N2CCc3ccccc32)[nH]c(=O)n1Cc1ccc(F)cc1	-1.0	i	-0.4	1.5	6%	-5.0	0.65
40	Cn1cc(-c2ccccc2C(N)=O)c(=O)c2cc(Cl)ccc21	0.0	i	-24	-6.2	7%	?	0.69
41	CC[C@]12c3[nH]c4ccc(Cl)cc4c3CCN1C(=O)[C@@H](CC(=O)NCCCN(C)C)C[C@@H]2C(=O)N1CCN(C(=O)c2ccco2)CC1	0.2	.	2.4	2.2	4%	.	0.68
42	Cc1ccc(OCC(=O)Nc2ccc(S(=O)(=O)N3CCN(C)CC3)cc2)cc1	.	.	-1.7	1.8	?	-0.3	0.73
43	S=C(NC1CCCC1)N1CCN(c2ncccn2)CC1	-0.7	i	1.5	-0.7	3%	-1.6	0.65
44	CCCCOc1ccc(Nc2nc(C)cc(C)c2C#N)cc1	.	.	-52	2.5	7%	8.1	0.69
45	CC1CCN(c2oc(-c3ccc(F)cc3)nc2C#N)CC1	?	i	-110	0.2	.	-0.4	0.68
46	CC(=O)NC12CC3CC(C)(C1)CC(NC(C)=O)(C3)C2	1.3	i	0.3	-0.3	5%	1.7	0.65
47	C=CCN1C2=NCCCN2c2ccccc21	6.2	i	2.5	-1.1	.	2.9	0.67
48	Cc1ccsc1/C=N\NC(=O)c1n[nH]c2c1CCC2	.	.	.	-2.8	12%	-2.5	.
49	C=CCc1cccc(/C=N/NC(=O)CCC(=O)Nc2ccc(C)cc2)c1O	.	.	.	-2.8	-4%	0.1	.
50	Cc1nc(CN2CCN(C(=O)CCc3nnc(Cc4c[nH]c5ccccc45)o3)CC2)cs1	.	.	1.6	0.0	.	4.5	0.7
51	O=C(O)CNC(=O)/C(=C/c1ccco1)NC(=O)/C=C/c1ccccc1	.	.	5.9	-2.6	33%	3.1	0.66
52	O=C(CN1CCN(C(=O)C2CCCO2)CC1)Nc1ccc(Cl)cc1 (stereo not given)	-1.0	i	3.0	0.8	.	2.2	0.69
53	Cc1cccc(S(=O)(=O)N(CC(=O)Nc2ccccc2C)Cc2ccco2)c1	.	.	1.4	-1.5	?	1.3	0.74
54	O=C(Cc1ccccc1)NCC(=O)Nc1cc(Cl)ccc1Cl	-0.6	i	-0.1	0.6	5%	?	0.65
55	COc1ccc(N2C(=O)S[C@@H]3CS(=O)(=O)C[C@@H]32)cc1	.	.	1.6	0.5	7%	3.9	0.7
56	CC1CCN(C(=O)C2c3ccccc3C(=O)N3CCc4ccccc4C23)CC1 (stereo not given)	.	.	3.7	2.2	66%	1.7	0.66

# Next section.
no.	Molecule	MLL AF4-AF9 inh	FGF22 binding	UCH37 DUB inh	HNF4A DNA FP	Vif TR-FRET	RanGTP-Impb inh	Ecoli growth
57	O=C(CC1C(=O)NCCN1Cc1cccc(Oc2ccccc2)c1)NCc1cccnc1 (stereo not given)	-6.3	i	0.0	-3.8	.	-1.1	0.69
58	CCn1cc(CN2CCCC(C(=O)Nc3ccc(-c4cscn4)cc3)C2)cn1 (stereo not given)	-0.6	i	1.1	-2.1	-1%	3.8	0.7
59	C[C@H](CO)N1C[C@H](C)[C@@H](CN(C)S(=O)(=O)c2cn(C)cn2)OCc2cnnn2CCCC1=O	-1.5&0.7	i	.	0.9	.	.	.
60	CCOC(=O)c1c(C)n(C)c2cc(Br)c(C(=O)OC)cc12	.	.	5.9	-0.9	9%	3.7	0.76
61	CCOC(=O)Cc1nn[nH]n1	-0.3	i	0.3	0.2	0%	7.3	0.66
62	CSc1nc(N)nc2c1ncn2Cc1ccccc1	-1.1	i	0.5	-0.7	1%	.	0.66
63	CC(=O)C1C(c2ccc(F)cc2)C2C(C)=NN=C2CC1(C)O (stereo not given)	-1.1	i	0.0	3.1	-4%	4.9	0.7
64	Cc1cc(SC(C)C(=O)O)nc2ccccc12 (stereo not given)	5.7	i	5.2	-3.2	-10%	2.8	0.66
65	COc1ccc(C(=O)NC(NC(=O)c2ccc(OC)cc2)c2ccccc2F)cc1	-0.8	i	0.0	2.3	-1%	2.1	0.7
66	CN1CCN(CCc2nc3cc(NC(=O)c4ccco4)ccc3n2C)CC1	.	i	1.5	0.7	-7%	5.4	0.67
67	COc1ccc(C2c3c(ccc4ccccc34)Oc3ncn4nc(-c5ccco5)nc4c32)cc1 (stereo not given)	.	.	3.3	1.8	.	-13	0.68
68	O=C1CCCCN1CCc1c[nH]c2ccccc12	.	.	5.3	1.8	8%	-3.2	0.76
69	O=C(CCN1C(=O)C2CCCCC2C1=O)Nc1ccc(Br)cc1F (stereo not given)	0.4	i	3.9	0.1	8%	1.3	0.68
70	O=C(c1ccccc1Nc1ccc(SC(F)F)cc1)N1CCCCCC1	.	.	2.7	2.7	-8%	-3.2	0.68
71	CC(C)(C)NC(=O)NC(=O)CN1CCC(Cc2ccccc2)CC1	-0.8	i	2.6	-2.3	8%	2.5	0.67
72	O=C(c1ccccn1)N1CCCC(N2CCN(c3ccc(F)cc3)CC2)C1 (stereo not given)	-15	i	1.9	-4.3	.	-2.7	0.7
73	CSc1ccc(CN(C)CC(=O)Nc2c(F)cccc2F)cc1	2.2	i	0.9	-4.2	.	-0.4	0.68
74	COc1ccccc1CNS(=O)(=O)c1cc(CN2C(=O)c3cccnc3C2=O)ccc1OC	-6.2	i	0.1	-1.0	.	0.0	0.71
75	Cc1ccc(NC(=S)N2CCOCC2)c(C)c1	.	.	-0.3	0.0	-7%	4.0	0.75

# Assay outcomes from PubChem BioAssay.
